From PubChem BioAssay
eIF4H inh = inhibitors of RNA binding by human eIF4H; 290,000 compounds, 0.94% hits; inhibition, % at 35 µM; AID 2012; eIF4H fluorescence polarization binding assay;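 active = 50% or more with normal probe brightness, or confirmed in later tests; about a fifth of its hits are not listed in these tables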;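 note: calls also rest on retests at 20 µM and on dose response follow-up; 0% = protein and probe with vehicle and 100% = probe without protein; strong numbers were not always called active; many hits fall short of the cut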
CSC inhib = cancer stem cell inhibition | cancer stem cell-like cells viability, luminescence | inhibition, % at 7.5 µM | 300,000 compounds, 1.1% hits | AID 2717;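 active = mean at 75% or more and at least half the replicates too; tested in HMLE shEcad cells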;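 note: 0% = median of negative and 100% = median of positive control wells; the first replicate is given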
Rce1 inhib = yeast Ras-converting enzyme inhibition | Q03530 | yeast membranes, quenched prenylated peptide cleavage fluorescence | calls only | 290,000 compounds, 0.27% hits | AID 2563;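 active = fall in fluorescence gain of 50% or more versus controls, with final raw signal at or below 3038400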;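 note: plate controls were neutral control wells for no effect and wells lacking membranes for full effect; tested at 10 µM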
MT1-MMP act inh = blocks activation of human MT1-MMP; GFP/RFP ratio change, % at 20 µM; P50281; HT1080 RFP-PRO-GFP cells, GFP/RFP ratio fluorescence, overnight; percent of plate control window, DMSO zero; 360,000 compounds, 0.061% hits;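 active = GFP/RFP ratio change of at least 30% with cell ATP level not reduced by more than half and red fluorescence within 50% of control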; note: strong numbers were not always called active
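Material – HT1080 RFP-PRO-GFP cells · Control set – DMSO wells and RFP-L50D-GFP cells · Incubation – overnight cell settling, then overnight compound exposure, 37 °C, 5% CO2 · Compound dosing – single-point 20 µM compound, 1% DMSO · Read-out – GFP/RFP fluorescence ratio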
Yeast UUG start = yeast start codon fidelity modulation | S. cerevisiae UUG-firefly luciferase reporter, luminescence/redox ratio | activity score, % at 18.7 µM | 350,000 compounds, 0.13% hits;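 active = replicate mean at a twofold rise or more, about +100% in these data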;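 note: firefly luciferase made from a UUG start codon reports start codon fidelity; reporter light over untreated wells divided by growth signal over untreated wells; some hits fall short of that in this replicate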
HIV Env fusion = HIV envelope-mediated fusion inhibition; HeLa-JRFL Env/CEM21 cell fusion, luciferase; inhibition, % at 12.3 µM; 360,000 compounds, 1.1% hits; AID 651610;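 active = mean replicate inhibition score of at least 50 and every replicate individually at or above 50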;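 note: 0% = plate neutral controls and 100% = maraviroc near 300 nM; one replicate is shown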
PABP polyA inh = PABP-poly(A) binding inhibition; AID 2014; inhibition, % at 35 µM; 290,000 compounds, 1% hits; PABP-poly(A) RNA binding, fluorescence polarization; P11940;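 active = 50% or more with normal probe brightness, or confirmed in later tests; about a fifth of its hits are not listed in these tables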;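 note: calls also rest on retests at 20 µM and on dose response follow-up; controls were probe without protein and protein plus probe with vehicle; some compounds called inactive have numbers as strong as hits; many hits fall short of the cut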
Target sequence (P11940 whole entry, looked up): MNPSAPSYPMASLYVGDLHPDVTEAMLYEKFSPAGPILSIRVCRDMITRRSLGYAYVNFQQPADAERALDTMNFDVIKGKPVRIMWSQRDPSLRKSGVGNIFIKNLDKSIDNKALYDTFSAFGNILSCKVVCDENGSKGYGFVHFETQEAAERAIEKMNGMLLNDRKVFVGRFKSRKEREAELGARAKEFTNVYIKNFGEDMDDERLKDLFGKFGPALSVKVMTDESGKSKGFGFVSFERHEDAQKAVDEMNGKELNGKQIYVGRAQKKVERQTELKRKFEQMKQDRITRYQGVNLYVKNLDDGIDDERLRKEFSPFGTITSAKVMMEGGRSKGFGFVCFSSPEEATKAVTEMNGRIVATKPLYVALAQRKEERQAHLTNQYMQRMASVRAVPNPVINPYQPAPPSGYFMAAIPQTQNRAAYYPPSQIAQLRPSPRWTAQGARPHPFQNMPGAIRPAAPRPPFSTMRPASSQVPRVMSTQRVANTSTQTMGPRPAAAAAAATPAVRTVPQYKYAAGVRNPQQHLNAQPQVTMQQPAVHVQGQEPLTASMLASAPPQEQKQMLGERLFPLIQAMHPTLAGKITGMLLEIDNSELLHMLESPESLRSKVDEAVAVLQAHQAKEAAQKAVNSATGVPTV
eIF4H inh retest = further read-out of eIF4H inh, marked with its call; inhibition, %; compound at 20 µM; confirmation average;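 mean of two retest wells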
PABP polyA inh retest = second read-out of PABP polyA inh, no call of its own (marks repeat the call); inhibition, %; compound at 20 µM; confirmation repeats;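 mean of two retest wells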
MT1-MMP act inh RFP = further read-out of MT1-MMP act inh, marked with its call; RFP signal change, %; measured here: RFP expression control read;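 0 = vehicle wells; hits needed this value within 50% of zero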
Starred values were filed as active, the others as inactive; i = inactive; . = not tested or not shown.

Start of the data: the first two records (preview)
SMILES	eIF4H inh	CSC inhib	Rce1 inhib	MT1-MMP act inh	MT1-MMP act inh RFP	Yeast UUG start	HIV Env fusion	PABP polyA inh	others
COC(=O)C(NS(=O)(=O)c1ccccc1Br)C(C)C (stereo not given)	-7	-1	i	1	-2	-6	-16	1
COc1ccc(NC(=O)c2cc(C3CCCCN3C(=O)c3ccc(C#N)cc3)on2)c(C)c1 (stereo not given)	.	.	.	-2	-4	-3	4	.

The whole of this part, from the first entry:
SMILES	eIF4H inh	CSC inhib	Rce1 inhib	MT1-MMP act inh	MT1-MMP act inh RFP	Yeast UUG start	HIV Env fusion	PABP polyA inh	others
COC(=O)C(NS(=O)(=O)c1ccccc1Br)C(C)C (stereo not given)	-7	-1	i	1	-2	-6	-16	1
COc1ccc(NC(=O)c2cc(C3CCCCN3C(=O)c3ccc(C#N)cc3)on2)c(C)c1 (stereo not given)	.	.	.	-2	-4	-3	4	.
COc1ccccc1C(=O)N/C(=C/c1ccco1)C(=O)Nc1ccc(C(=O)O)cc1	60*	-11	i	-9	1	.	3	47	eIF4H inh retest=65*;PABP polyA inh retest=40
CCOC(=O)[C@@H]1[C@H]2COc3ccccc3[C@@H]2N2C(=O)N(c3ccc(F)cc3)C(=O)[C@@]12C	7	-4	i	-2	2	-2	.	-1
Cn1c(-c2ccc3c(c2)OCO3)c(C(=O)O)c(=O)c2ccccc21	6	-7	i	3	4	.	-6	2
O=S(=O)(NCCc1ccncc1)c1ccc(Br)cc1	-10	15	i	4	-1	-18	22	-2
CCC(C)[C@H](NC(=O)[C@H](Cc1ccccc1)n1c(=O)[nH]c2ccccc2c1=O)C(=O)N1CCC(C(=O)O)CC1 (stereo not given in full)	4	-1	i	1	3	-3	.	0
COc1cccc(NC(=O)CCc2c(C)nc3nc(CNC(=O)c4cccc(F)c4)nn3c2C)c1	-6	-15	i	0	0	-32	2	3
O=c1[nH]c(=O)n(Cc2ccccc2)c2nc(-c3ccco3)cc(C(F)(F)F)c12	4	16	i	6	4	-12	.	3
Cc1cc(=O)n(C)c(=O)n1CCCCOc1cccc([N+](=O)[O-])c1	-1	-3	i	0	1	.	-9	-7
COc1cc(OC)cc(C(=O)NC(=S)Nc2cc3oc4ccccc4c3cc2OC)c1	-3	.	i	0	0	0	7	0
Cc1ccc(C2=NN(C(=O)CSc3nc4ncc(Cl)cc4[nH]3)C(c3ccco3)C2)cc1 (stereo not given)	42	-11	i	0	4	.	1	1
CCCCn1cnc2c([nH]c3ccccc32)c1=O	-5	-4	i	3	-2	.	.	-5
Cc1ccccc1OC(=O)c1cccc(S(=O)(=O)N2CCN(C)CC2)c1	.	-8	.	3	-2	-1	9	.
Cc1ccc(C(=O)Nc2ccccc2C(=O)N2CCN(c3ccccc3)CC2)cc1	-4	-4	i	-2	-2	4	-47	2
COc1ccc(C(O)(C2CCCCC2)C(CN2CCCC2)c2ccccc2)cc1 (stereo not given)	-16	8	i	-12	-12	-5	7	13
Cc1ccc(NC2=NCC(=O)N2c2ccc3c(c2)OCCO3)c(C)c1	0	-9	i	4	8	-5	.	-8
Cc1nc(-c2cccc(S(=O)(=O)N3CC(C)CC(C)C3)c2)cs1 (stereo not given)	1	11	i	-3	-8	.	.	5
COC(=O)CCC(=O)Nc1c(C)n(C)n(-c2ccccc2)c1=O	1	-9	i	-1	6	.	16	4
COc1cccc(COC(=O)c2nn(-c3ccccc3)nc2N)c1	1	-1	i	-1	4	-4	9	-11
Cc1cc(C)c(C)c(S(=O)(=O)NCCCN2CCOCC2)c1C	-10	-4	i	1	1	-5	-1	-6
NS(=O)(=O)c1cccc2cccnc12	3	7	i	1	0	-15	-4	-10
Cc1ccc(-c2nnn(CC(=O)N(Cc3ccc(F)cc3)C(C(=O)NC3CCCC3)c3ccncc3)n2)o1 (stereo not given)	-4	-1	i	-14	-13	-15	.	4
Cc1cc2oc(=O)cc(CN3CCN(c4ccc(Cl)c(Cl)c4)CC3)c2cc1Cl	.	.	.	3	2	2	6	.
O=C(Cc1ccccc1)Nc1ccc2oc(=O)ccc2c1	-3	.	i	3	4	-19	2	-7
CCOC(=O)CSc1nnc(-c2cccc(Cl)c2)n1CC	3	1	i	1	-2	-8	-17	6
COC(=O)c1ccc(N2CCN(C)CC2)c(NC(=O)COc2ccccc2Cl)c1	8	5	i	0	1	-1	-13	-1
CCN(C1CCCCC1)S(=O)(=O)c1ccc(C(=O)O)cc1	-9	.	i	-2	-1	3	-6	8
COc1ccc(/C=N/NC(=O)c2ccccc2F)cc1CN1CCN(c2ccc(F)cc2)CC1	4	-12	.	7	0	.	7	3
O=C(NCCCc1ccccc1)C(=O)NCC1OCCN1S(=O)(=O)c1ccccc1 (stereo not given)	-4	4	i	-1	0	-14	-9	10
C=CC[N@@+]12CC[C@]34c5ccccc5N5/C=C6\C7N(/C=C(\C53)[C@@H](C[C@@H]41)/C(=C/CO)C2)c1ccccc1[C@@]71CC[N@@+]2(CC=C)C/C(=C\CO)[C@@H]6C[C@@H]12 (stereo not given in full)	.	2	.	2	4	-2	4	.
COc1ccc(/C=N/NC(=S)Nc2ccccc2)cc1COc1ccccc1F	3	-9	i	.	.	.	-1	-7
CS(=O)(=O)c1ccc2nnn(OCC(=O)Nc3ccc(Br)cc3Br)c2c1	-7	3	i	2	-4	.	-7	-15
Cc1ccc(-c2nnc(C)c(N3CCCC3)n2)cc1	1	-10	i	-1	2	.	-4	11
Cc1ccc(-c2csc(-c3ccncc3)n2)cc1	-5	-5	i	0	1	.	-64	-2
CCOC(=O)C(NC(=O)CC)(Nc1ccccc1OC)C(F)(F)F (stereo not given)	1	-6	i	3	3	4	.	7

Filtered by structure: those above with bromine.
SMILES	eIF4H inh	CSC inhib	Rce1 inhib	MT1-MMP act inh	MT1-MMP act inh RFP	Yeast UUG start	HIV Env fusion	PABP polyA inh	others
COC(=O)C(NS(=O)(=O)c1ccccc1Br)C(C)C (stereo not given)	-7	-1	i	1	-2	-6	-16	1
O=S(=O)(NCCc1ccncc1)c1ccc(Br)cc1	-10	15	i	4	-1	-18	22	-2
CS(=O)(=O)c1ccc2nnn(OCC(=O)Nc3ccc(Br)cc3Br)c2c1	-7	3	i	2	-4	.	-7	-15

Continued:
SMILES	eIF4H inh	CSC inhib	Rce1 inhib	MT1-MMP act inh	MT1-MMP act inh RFP	Yeast UUG start	HIV Env fusion	PABP polyA inh	others
O=C(C[C@H]1C/C=C\CC[C@H](Cc2ccc(F)cc2)C(=O)O[C@@H](c2ccccc2)CNC1=O)N[C@H](CO)Cc1ccccc1	.	3	.	2	-7	-22	19	.
COC(=O)c1cccc(COC(=O)c2cc3ccccc3oc2=O)c1	-2	-12	i	-2	-2	-9	1	-2
COc1ccc(OC)c(NC(=O)C(C)N2c3cccc4cccc(c34)S2(=O)=O)c1 (stereo not given)	-4	19	i	3	-3	9	15	2
COCc1[nH]nc2c1C(c1ccc(F)cc1F)C(C#N)=C(N)O2 (stereo not given)	7	-2	i	2	-1	-18	-31	2
Cc1cccc(NC(=S)N(CCN2CCOCC2)Cc2ccccc2F)c1	2	-6	i	-1	-2	-19	14	6
COC(=O)c1ccc(CSc2nnc(N)s2)cc1	-7	-6	i	2	-1	-23	.	-2
Cc1nnsc1-c1c(C(=O)N2CCOCC2)c(C)nn1-c1ccccc1	-3	-10	i	1	0	-10	12	-6
CCc1nc2c(OCc3ccc(C(=O)OC)cc3)cccn2c1N(C)C(=O)c1ccc(C)cc1	.	.	.	-4	1	-22	7	.
Nc1nonc1-c1nc2ccccc2n1CC(=O)Nc1ccccc1	-16	8	i	-3	3	-11	14	2
O=[N+]([O-])c1ccc(/C([O-])=C(/C(=S)NCc2ccco2)[n+]2ccccc2)cc1	84	-3	i	1	3	.	4	11	eIF4H inh retest=16;PABP polyA inh retest=46
O=C(Oc1ccc(/C=N/O)cc1)c1ccccc1Cl	1	-4	i	-2	0	.	-52	14
Cc1ccc(NC2=CC(=O)CC(c3ccco3)C2)c(N)c1 (stereo not given)	104*	2	.	0	0	-13	.	99*
N#CCCNC(=O)CCN1CCOCC1	8	-8	.	4	6	-8	.	-1
CCc1nnc(NC(=O)CCC(=O)N2CCN(CCc3ccccc3)CC2)s1	3	-1	i	7	-4	-18	.	25
O=C(CSc1nc(-c2ccco2)cc(C(F)(F)F)n1)NCCN1CCOCC1	-4	-24	i	-3	-2	12	12	7
Cc1cc(=O)[nH]c2nnc(-c3ccc(Cl)cc3)n12	-2	.	i	-10	4	-11	1	9
Cc1ccc(-n2c(-c3ccc(Br)cc3)c[n+]3c2CCc2ccc4cccnc4c2-3)cc1	0	64	i	-28	-30	-11	-64	-9
CC(=O)N1c2ccc(S(=O)(=O)N3CCCC3)cc2CC1C(=O)NCc1ccccc1F (stereo not given)	9	2	i	4	6	-11	-4	2
O=C(CCc1ccccc1)NNC(=S)NC(=O)c1ccccc1	12	3	i	6	-1	-59	.	-13
O=C(COC(=O)Cc1cccc(F)c1)NC(=O)NC1CCCCC1	.	.	.	-2	0	-2	-17	.
CCN(CC)CCN(C(=O)c1ccccc1OC)c1nc2ccc(F)cc2s1	-5	-5	i	-11	-3	.	18	-14
COc1ccc(/C=N/NC(N)=S)cc1	-6	-2	i	1	0	-29	-42	-4
O=C(c1ccc(Cl)c(S(=O)(=O)N2CCOCC2)c1)N1CCc2ccccc2C1	.	-7	.	4	-3	-1	0	.
CC[C@H](C)[C@@H](COC=O)NC(=O)[C@H]1O[C@@H](n2ccc(N)nc2=O)[C@H](O)[C@@H]1O	.	.	.	4	3	2	7	.
COc1ccc(-c2csc(NC(=O)c3ccccc3OC)c2C(=O)O)cc1OC	1	-6	i	-1	2	-9	-7	-7
O=c1[nH]c(C2CCCN(S(=O)(=O)c3ccccc3)C2)nc2c1nnn2Cc1ccc2c(c1)OCCO2 (stereo not given)	-14	-2	i	-4	0	-5	7	10
CCOC(=O)c1c(/N=C/N(C)C)sc(/C=N/Nc2ccccc2)c1-c1ccc(Cl)cc1	5	25	i	-8	0	.	-1	4
COc1cc(S(=O)(=O)N2CCN(Cc3ccc4c(c3)OCO4)CC2)ccc1NC(C)=O	.	11	.	9	0	2	-53	.
C=CCN(Cc1ccc(Cl)s1)C(=O)c1ccc(F)c(S(=O)(=O)N2CCOCC2)c1	.	-2	.	1	-9	-15	31	.
CCOC(=O)N1CCN(S(=O)(=O)N2CCCC(C(=O)NCCc3ccc(C)cc3)C2)CC1 (stereo not given)	-2	-13	i	1	-2	-10	-1	7
CCn1c(C)[n+](CC)c2ccc(S(=O)(=O)N(C)C)cc21	-12	8	i	-4	1	-15	-5	36
NCCCCCC(=O)N/N=C/c1coc2ccccc2c1=O	5	-6	i	-3	-3	.	3	12
N#CCCN1CCN(S(=O)(=O)c2cc(Cl)ccc2Cl)CC1	15	6	i	2	-2	-9	6	0
COC(=O)c1ccc(CN2CCN(Cc3ccc(C(=O)OC)o3)CC2)o1	-4	-8	i	-2	3	-17	.	6
CCCC(=O)Nc1nc2n(n1)C(c1ccccc1)CC(=O)N2 (stereo not given)	-11	-5	i	1	7	-18	-18	-1
Cc1ccc(SCC(=O)OCC(=O)NC2(C#N)CCCCC2)cc1	-6	-3	i	4	2	-4	0	4
CC1c2ccccc2SC(CCCN(C)C)c2ccccc21 (stereo not given)	12	10	i	-8	-6	.	-22	12
NCc1csc(Nc2cc(Oc3ccccc3)ncn2)n1	.	.	.	-2	-4	-35	-6	.
CCC1(CC)NC(=O)N(CC(=O)OCC(=O)Nc2ccccc2OC(F)F)C1=O	.	-8	.	-1	3	-10	3	.
Cc1ccc(C(C)C)c(OCCNCCc2ccccc2)c1	0	56	.	-2	-9	1	23	-8
CC(c1ccon1)N(C)C(=O)CCc1nnc(CCCCc2ccccc2)o1 (stereo not given)	-2	.	i	-6	-1	1	13	-8
CCOC(=O)CSc1nc(-c2ccccc2)cc(C(F)(F)F)n1	-13	-3	i	-2	-1	-11	.	7
